# Bioassay records from PubChem.
# nsP2pro inh = blocks chikungunya virus nsP2 protease peptide cleavage; Q8JUX6; FRET peptide cleavage, nsP2pro, fluorescence 1 h; Potency, µM (highest dose often 24.9 µM), without a hit: at the top dose activity change, negative = inhibition, hits mostly inhibitors; 1.1% of 31,000 active; active means well fitted inhibition curve with a large enough effect; inconclusive means small, poorly fitted or top-dose-only effect; inactive means no such curve, though single readings can be large or run the other way; note: nearly all actives have a fitted effect of over 60% in size; a reference inhibitor and vehicle were the controls
# Target sequence (Q8JUX6 whole entry, looked up): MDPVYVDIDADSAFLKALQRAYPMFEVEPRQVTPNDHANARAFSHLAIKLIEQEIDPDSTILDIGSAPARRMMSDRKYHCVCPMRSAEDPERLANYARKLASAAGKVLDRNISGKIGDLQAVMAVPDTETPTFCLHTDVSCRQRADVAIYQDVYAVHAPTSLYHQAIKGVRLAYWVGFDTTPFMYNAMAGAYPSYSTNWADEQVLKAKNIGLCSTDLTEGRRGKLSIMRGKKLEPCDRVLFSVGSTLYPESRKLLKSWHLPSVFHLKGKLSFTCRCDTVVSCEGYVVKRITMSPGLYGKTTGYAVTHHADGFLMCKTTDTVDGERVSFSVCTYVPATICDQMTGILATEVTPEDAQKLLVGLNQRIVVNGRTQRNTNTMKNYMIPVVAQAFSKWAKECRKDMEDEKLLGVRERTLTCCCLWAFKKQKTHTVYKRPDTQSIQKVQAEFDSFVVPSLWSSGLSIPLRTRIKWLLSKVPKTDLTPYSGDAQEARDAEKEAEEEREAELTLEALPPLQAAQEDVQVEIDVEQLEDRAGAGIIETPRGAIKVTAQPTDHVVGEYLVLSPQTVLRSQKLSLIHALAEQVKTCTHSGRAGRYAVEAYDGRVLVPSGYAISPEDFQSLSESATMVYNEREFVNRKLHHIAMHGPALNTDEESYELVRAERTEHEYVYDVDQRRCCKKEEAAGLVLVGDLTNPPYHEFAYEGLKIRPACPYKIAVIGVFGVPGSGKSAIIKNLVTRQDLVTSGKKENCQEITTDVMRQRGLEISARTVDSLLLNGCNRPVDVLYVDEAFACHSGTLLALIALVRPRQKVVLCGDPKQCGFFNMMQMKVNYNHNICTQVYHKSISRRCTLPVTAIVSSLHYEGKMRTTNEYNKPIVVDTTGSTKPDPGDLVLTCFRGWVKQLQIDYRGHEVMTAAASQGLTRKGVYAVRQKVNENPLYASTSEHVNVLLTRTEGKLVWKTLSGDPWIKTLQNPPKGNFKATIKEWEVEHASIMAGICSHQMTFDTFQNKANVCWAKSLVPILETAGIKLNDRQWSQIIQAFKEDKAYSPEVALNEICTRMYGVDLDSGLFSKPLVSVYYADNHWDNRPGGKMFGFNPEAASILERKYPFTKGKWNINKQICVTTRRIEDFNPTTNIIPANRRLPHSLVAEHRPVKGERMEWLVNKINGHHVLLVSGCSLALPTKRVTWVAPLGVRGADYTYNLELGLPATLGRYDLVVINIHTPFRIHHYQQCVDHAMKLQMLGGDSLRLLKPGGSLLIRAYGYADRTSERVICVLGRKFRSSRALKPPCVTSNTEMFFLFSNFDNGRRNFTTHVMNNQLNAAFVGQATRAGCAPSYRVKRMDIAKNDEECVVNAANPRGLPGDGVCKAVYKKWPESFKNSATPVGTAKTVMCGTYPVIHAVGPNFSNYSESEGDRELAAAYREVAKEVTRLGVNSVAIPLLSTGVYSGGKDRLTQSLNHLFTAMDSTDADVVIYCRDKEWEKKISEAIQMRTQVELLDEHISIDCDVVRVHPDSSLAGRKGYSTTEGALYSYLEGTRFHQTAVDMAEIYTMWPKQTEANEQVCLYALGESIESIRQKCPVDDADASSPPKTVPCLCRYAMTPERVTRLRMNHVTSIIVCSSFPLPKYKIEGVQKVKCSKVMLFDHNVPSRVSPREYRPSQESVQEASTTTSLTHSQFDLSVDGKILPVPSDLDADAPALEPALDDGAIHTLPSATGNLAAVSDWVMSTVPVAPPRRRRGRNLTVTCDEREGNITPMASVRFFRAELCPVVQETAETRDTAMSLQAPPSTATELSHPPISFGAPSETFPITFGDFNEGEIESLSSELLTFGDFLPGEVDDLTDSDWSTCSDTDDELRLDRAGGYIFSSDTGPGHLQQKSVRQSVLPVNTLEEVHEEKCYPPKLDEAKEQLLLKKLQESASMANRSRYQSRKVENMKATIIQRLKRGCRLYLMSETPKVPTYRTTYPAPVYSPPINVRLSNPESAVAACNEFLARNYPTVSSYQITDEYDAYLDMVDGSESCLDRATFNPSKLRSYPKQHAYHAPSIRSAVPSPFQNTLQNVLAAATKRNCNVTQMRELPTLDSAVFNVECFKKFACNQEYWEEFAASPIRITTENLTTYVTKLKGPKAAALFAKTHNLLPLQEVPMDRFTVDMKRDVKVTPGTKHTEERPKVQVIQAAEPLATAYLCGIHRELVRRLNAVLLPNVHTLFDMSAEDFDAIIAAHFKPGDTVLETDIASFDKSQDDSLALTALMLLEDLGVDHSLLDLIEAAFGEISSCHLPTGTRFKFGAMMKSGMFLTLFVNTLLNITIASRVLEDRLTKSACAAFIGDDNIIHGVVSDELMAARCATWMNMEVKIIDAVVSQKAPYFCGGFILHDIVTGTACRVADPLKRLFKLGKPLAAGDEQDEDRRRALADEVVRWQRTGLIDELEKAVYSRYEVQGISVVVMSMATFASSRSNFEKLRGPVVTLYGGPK
# Numbers without * were called inactive; i = inactive; u = inconclusive; & = joins results of further samples; [ ] = remark or other dose. % is set by controls: 0 for no effect and ±100 for the full control effect; potency is the fitted concentration of half-maximal effect.
SMILES,nsP2pro inh
CC(CN(C)C)CN1c2ccccc2Sc2ccc(C(F)(F)F)cc21 (configuration not stated),-4.3%
O=C(CSc1nnc(-c2cccc(F)c2)c(-c2cccc(F)c2)n1)NC1CCCCC1,-20.3%
O=c1[nH]c(C2CCCN(Cc3cccc(Cl)c3)C2)nc2ccc(F)cc12 (configuration not stated),-7.7%
CNCc1ccc(-c2cc(-c3nc(-c4ccc(S(=O)(=O)C(C)C)cc4)cnc3N)on2)cc1,62.1%[activator]
COc1ccc(CCNC(=O)c2cc(=O)[nH]c3ccc(S(=O)(=O)N4CCCCC4)cc23)cc1OC,-10.3%
CC1=C[C@H](O)[C@H]2C(C)(C)CCC[C@]2(C)[C@@]1(O)CO,u
N#Cc1ccccc1S(=O)(=O)N1CCN(S(=O)(=O)c2ccc3c(c2)OCCO3)CC1,-7.9%
O=C1NC(=O)/C(=C/c2cccc(C(F)(F)F)c2)S1,53.7%[activator]
CCOC(=O)C1=C(CNCc2ccc(Cl)cc2)NC(=O)NC1c1ccccc1 (configuration not stated),-14.6%
COc1c(-c2ccc3cc(NS(C)(=O)=O)ccc3c2)cc(-n2ccc(=O)[nH]c2=O)cc1C(C)(C)C,-12.0%&-2.0%&-5.8%
O=C(C[C@@H]1CCNC[C@@H]1Cc1cc(COc2ccccc2)on1)Nc1ccccc1,i
CCOc1ccccc1C(=O)NC1(C(F)(F)F)NC(=O)N(CCc2ccc(OC)c(OC)c2)C1=O (configuration not stated),-8.4%
CCCn1c(-c2ccc(F)cc2)nc2c(NCCN3CCOCC3)nc(C)nc21,-3.5%
OCc1cc(C(O)CNCCCCCCOCCCCc2ccccc2)ccc1O (configuration not stated),-24.3%
Cc1nc2c(-c3ccc(F)cc3)c(C)nn2c(C)c1CCC(=O)N1CCN(c2ccc(F)cc2)CC1,-9.7%
CCc1nc2cc(N3CCCC(C(=O)O)C3)cnc2nc1CC (configuration not stated),u
CC(=O)c1ccc(NC(=O)c2cc3sccc3n2Cc2ccc(F)cc2)cc1,-23.9%
Cc1cc(C)c(S(=O)(=O)n2cc(C)cc2C)c(C)c1,-29.1%
Cc1cn2nc(-c3cc(=O)n4cc(N5CCNC6(CC6)C5)ccc4n3)cc(C)c2n1,12.6%
CCC(C)/C=C(C)/C=C/C1=CC2=C(Cl)C(=O)C(C)(OC(C)=O)C(=O)C2=CN1C1CCCCN(C(CCC(N)=O)C(=O)O)C1=O (configuration not stated),-19.3%[10 µM]
O=C1CCN(CC(O)C(F)(F)F)c2ccccc2CCN1Cc1ccccc1 (configuration not stated),-11.3%[10 µM]
Cc1ccc(S(=O)(=O)CC(=O)Nc2sc3c(c2C#N)CCCCC3)cc1,-30.2%
COCCCN1CC2(CCN(C(=O)CCn3cc(C)cn3)CC2)CC1=O,1.4%
CCOC(=O)c1[nH]c2ccccc2c1NC(=O)c1ccccc1F,-10.1%
CCC(C)C1NC(=O)C2CCCN2C(=O)C(NC(C)=O)C(C)OC(=O)C(Cc2ccc(OC)cc2)N(C)C(=O)C2CCCN2C(=O)C(C(C)C)NC1=O (configuration not stated),-27.0%[10 µM]

# Laid out differently: results already given
molecule | nsP2pro inh
CCCn1c(-c2ccc(F)cc2)nc2c(NCCN3CCOCC3)nc(C)nc21 | -3.5%
OCc1cc(C(O)CNCCCCCCOCCCCc2ccccc2)ccc1O (configuration not stated) | -24.3%
Cc1nc2c(-c3ccc(F)cc3)c(C)nn2c(C)c1CCC(=O)N1CCN(c2ccc(F)cc2)CC1 | -9.7%
CCc1nc2cc(N3CCCC(C(=O)O)C3)cnc2nc1CC (configuration not stated) | u
CC(=O)c1ccc(NC(=O)c2cc3sccc3n2Cc2ccc(F)cc2)cc1 | -23.9%
Cc1cc(C)c(S(=O)(=O)n2cc(C)cc2C)c(C)c1 | -29.1%
Cc1cn2nc(-c3cc(=O)n4cc(N5CCNC6(CC6)C5)ccc4n3)cc(C)c2n1 | 12.6%

# Next structures follow:
SMILES,nsP2pro inh
CCCN(CCC)CCCNC(=O)Cn1cnc2sc(C)c(S(=O)(=O)N3CCCCC3)c2c1=O,-12.4%
O=c1c2ccccc2nc2sc(Nc3cccc(Br)c3)nn12,-0.5%
CC(C)CCNC(=O)CCC(=O)NNc1nc2ccccc2c2nc(-c3ccccc3)nn12,-17.6%
COc1ccc2c(c1)OCC(CNC(=O)c1scc3c1OCCO3)C2 (configuration not stated),i
CCCN(CCC)c1nn2c(=O)c(C(=O)NCc3cc(Br)ccc3OC)cnc2s1,-17.4%
COc1ccc(C2=Nn3c(nnc3-c3ccccc3Cl)SC2)cc1O[C@H]1CCOC1,2.8%
CC(=O)N1CCC(C(=O)NCc2cccnc2N(C)Cc2ccccc2)CC1,-7.3%
COc1ccc(F)cc1-c1cccc(C(=O)NCC(=O)NCc2cccs2)c1,-0.7%
Cc1c(-c2nnc(SCC(=O)Nc3ccccc3F)o2)nnn1-c1ccc(F)cc1,-5.3%
Cc1cnc(C2CCOCC2)n1C1CCCN(S(=O)(=O)c2ccccc2)C1 (configuration not stated),i
CCc1ccc(CNC(=O)CCC(=O)N2Cc3cccc(OC)c3Oc3ncccc32)cc1,-22.5%
O=[N+]([O-])c1c(Cl)cccc1-c1c[nH]cc1Cl,-13.3%
CCOC(=O)c1sc(NC(=O)c2cc3nc(-c4ccc(Br)cc4)cc(C(F)(F)F)n3n2)c(C(=O)OCC)c1C,-14.4%
COc1cccc(CC(=O)N2CC[C@@H](NC(=O)c3cnccn3)[C@H](O)C2)c1,-2.0%
Cn1c(Nc2ccc(Cl)cc2)cc(=O)n(C)c1=O,u
Cc1ccc(N[S+](=O)([O-])c2cc3c(cc2NC2CC2)NC(=O)CC3)cc1C,0.8%
Fc1ccc(-c2ccc(Nc3nc(-c4ccncc4)nc4ccccc34)cc2F)c(F)c1,i
COc1cc(NC(=O)c2c(-c3ccc(C)cc3)nnc3ccccc23)cc(OC)c1OC,-22.7%
OC[C@@H]1CN(CC2CCCCC2)C[C@H]1c1nc(C2CC2)no1,0.3%
O=C(O)c1cc2cccc([N+](=O)[O-])c2[nH]1,7.6%
O=C1Nc2ccccc2/C1=C/c1cc(Cl)c(O)c(Cl)c1,i
COc1ccc2nc(-c3ccc(F)cc3)sc2c1,3.7%
CN(C)c1ccc(CNc2nc(-c3ccco3)nn2C(=O)c2cccc([N+](=O)[O-])c2)cc1,-5.3%
C1CCC(NC2CCCCC2)CC1,0.0%
COCCn1c(C)nnc1-c1cc(-c2ccc(OC)c(OC)c2)ccn1,3.3%[39.2 µM]
# Additional structures.
SMILES,nsP2pro inh
COc1ccc(CNC(=O)CCn2c(=O)c3cccn3c3ccc(F)cc32)cc1OC,-18.7%
CCCn1c(NCc2ccccc2F)nc2ccccc21,-21.4%
COc1ccc(-c2ccccc2C(=O)NCC#N)nn1,i
O=C(Nc1ccc(Br)c(Cl)c1)c1ccc(C(=O)Nc2ccc(Br)c(Cl)c2)cc1,u
Cc1ccc(S(=O)(=O)N(CC(=O)NCCSc2ccc(Cl)cc2)c2cccc(Cl)c2)cc1,-24.1%
Cc1cc(C[C@@H]2COC[C@@H]2NC(=O)c2cnn3cc(CCO)cnc23)on1,i
O=C(N/N=C/c1ccc(O)c(O)c1)c1cc2ccccc2cc1O,56.1%[activator]
COc1cc(N)cn[n+]1-c1ccccc1,-6.0%
CCC(C)Sc1oc(-c2ccco2)nc1S(=O)(=O)c1ccc(Cl)cc1 (configuration not stated),-14.1%
COc1cc([C@H]2c3cc(O)c(OC)cc3C[C@@H](CO[C@@H]3O[C@H](CO)[C@@H](O)[C@H](O)[C@H]3O)[C@@H]2CO)ccc1O,38.9%[activator][10 µM]
CC(=O)c1cccc(NC(=O)c2c(C)nn(-c3ccc(F)cc3)c2-n2cccc2)c1,10µM*
Cc1cc(NC(=O)Nc2nnc(-c3ccncc3)s2)ccc1F,0.0%
NC(=O)c1cc(S(=O)(=O)NCc2ccc(Br)cc2)cs1,-14.7%
CCOC(=O)C1CCC(CN(Cc2c(Cl)cccc2Cl)S(=O)(=O)c2ccc(F)c(C)c2)CC1 (configuration not stated),-20.7%
Cc1ccc(C)c(N2CCN(CCCNC(=O)Cn3ncc4c5ccccc5n(C)c4c3=O)CC2)c1,-0.5%
CN(CC1CCOC1)C(=O)c1cccs1 (configuration not stated),u
COc1cccc(C2c3c(ncn(-c4ccc(NC(C)=O)cc4)c3=N)Oc3ccc4ccccc4c32)c1 (configuration not stated),-11.8%
CCOc1cc(CNC(=O)c2ccccc2NC(=O)c2nsc3ccccc23)ccc1OC,-12.3%
Cc1ccc(OCC(=O)Nc2ccc(OCc3cc(=O)n4c(C)csc4n3)cc2)cc1C,-17.7%
CC1=C(C(=O)Nc2cc(Cl)ccc2C)C(c2ccco2)n2ncnc2N1 (configuration not stated),-20.1%
Fc1ccc(-c2nc3n(c2-c2ccncc2)CCS3)cc1,5.6%
C[N+]1(CC2COC(c3ccccc3)(C3CCCCC3)O2)CCCCC1 (configuration not stated),-1.7%
Brc1cnc2nc(SCc3cccnc3)[nH]c2c1,3.2%
Fc1ccc(-n2ncc3c(Nc4ccc5c(c4)OCCO5)ncnc32)cc1,-13.9%
CC(=O)N1CCCc2ccc(NS(=O)(=O)c3ccc(F)cc3F)cc21,-22.8%
# Next part.
SMILES,nsP2pro inh
C[C@@H]1C[C@H]2[C@@H]3CCC4=CC(=O)C=C[C@]4(C)[C@@]3(F)[C@@H](O)C[C@]2(C)[C@@]1(O)C(=O)COC(=O)c1ccncc1,2.6%
CN(CC(=O)NCc1ccc(Cl)cc1)S(=O)(=O)c1ccc2c(c1)c(=O)n(C)c(=O)n2C,-13.5%
Cc1ncc([N+](=O)[O-])n1CCO,-1.1%
COc1cc(F)c(S(=O)(=O)Nc2c(C)n(C)n(-c3ccccc3)c2=O)cc1OC,-13.7%
Fc1ccccc1-c1ccc(Nc2nc(-c3ccncc3)nc3ccccc23)cc1F,2.6%
CC(=O)N1CCC([C@@H]2CN(Cc3cccnc3)C[C@H]2CO)CC1,-6.5%
O=C(NCC1CCCN(C(=O)N2CCCC2)C1)c1ccc(-c2ccccc2)cc1 (configuration not stated),i
CCOc1ccc(C(=O)Nc2ccc(-c3nn[nH]n3)cc2)cc1[N+](=O)[O-],i
CCCn1c(-c2ccc(F)cc2)nc2c(NCC(C)(C)CN(C)C)nc(C)nc21,i
CCS(=O)(=O)c1nc(S(=O)(=O)c2ccc(C)cc2)c(NCCCOC)s1,-14.1%
O=C(c1cc(-c2ccccc2)n[nH]1)N1CCc2c(nc(-c3ccccc3)[nH]c2=O)C1,0.9%
c1ccc2c(c1)ncc1nncn12,-11.0%
CC12CCC3C(CCC4(O)CC(O)CCC34C=O)C1(O)CCC2C1=CC(=O)OC1 (configuration not stated),-1.3%
COc1cc(S(=O)(=O)NCCc2c(C)[nH]c3ccc(C)cc23)ccc1Br,u
COc1cccc2c1CCC[C@H]2CN(C)CCc1ccc2ccoc2c1,40.0%[activator]
CC(=O)Nc1sc2c(c1C#N)CCN(C(C)C)C2,-9.5%
Cc1ccc(C)c(S(=O)(=O)c2nnn3c2nc(Nc2ccc(C)c(C)c2)c2ccccc23)c1,-16.1%
CC(C)[S+](=O)([O-])N1CCN(c2ccc(Cl)nn2)C(=O)C1,-8.2%
Cc1c(C(=O)NCc2ccccc2Cl)sc2nc[nH]c(=O)c12,-21.3%
CC(/C=C/C1(O)C2(C)COC1(C)CC(=O)C2)O[C@@H]1O[C@H](CO)[C@@H](O)[C@H](O)[C@H]1O (some centres not stated),38.8%[10 µM]
COc1ccc(OCc2cc(C(=O)NC(CO)C(C)C)no2)c2ccccc12 (configuration not stated),u
O=C(CNC(=O)c1ccc(Cl)cc1)OCc1cc(=O)n2nc(C3CC3)sc2n1,-26.4%
CC(C)(C)C(=O)N1CCCC1C(=O)N1CCC2(CC1)CC(=O)Nc1ccccc1O2 (configuration not stated),-17.7%
N#Cc1cc(CN2CCCC(C(=O)Nc3cccc(-c4ccc(F)cc4)c3)C2)c[nH]1 (configuration not stated),3.2%
CCn1nc(CC(C)C)cc1C(=O)N(C)C1CCCN(C2Cc3ccccc3C2)C1 (configuration not stated),-13.9%

# Four entries from above, arranged by length of the SMILES, rising.
SMILES,nsP2pro inh
Fc1ccccc1-c1ccc(Nc2nc(-c3ccncc3)nc3ccccc23)cc1F,2.6%
CCOc1ccc(C(=O)Nc2ccc(-c3nn[nH]n3)cc2)cc1[N+](=O)[O-],i
CC(C)(C)C(=O)N1CCCC1C(=O)N1CCC2(CC1)CC(=O)Nc1ccccc1O2 (configuration not stated),-17.7%
CC(/C=C/C1(O)C2(C)COC1(C)CC(=O)C2)O[C@@H]1O[C@H](CO)[C@@H](O)[C@H](O)[C@H]1O (some centres not stated),38.8%[10 µM]

# New compounds follow
SMILES,nsP2pro inh
CCOc1ccc(CNC(=O)C(C)n2ncn3cccc3c2=O)cc1 (configuration not stated),-4.5%
COc1ccc(-c2onc(C)c2C)cc1S(=O)(=O)N(C)Cc1ccco1,-10.6%
O=c1ccc(-c2ccccc2F)c2n1C[C@H]1C[C@@H]2CN(S(=O)(=O)c2ccccc2)C1,-21.9%[39.2 µM]
N#C/C(=C\c1ccc(-c2ccc(F)cc2F)o1)c1nc2ccccc2[nH]1,-10.4%
CC[C@@H]1CN(C(=O)NCC(F)(F)F)C[C@@H]1c1cnc2cnc3[nH]ccc3n12,-11.7%
COc1cccc(-n2c(SCC(=O)Nc3nnc(C)s3)nc3c([nH]c4ccccc43)c2=O)c1,-2.6%
NC(=O)Nc1cc(-c2ccc(CN3CCOCC3)c(F)c2)sc1C(=O)N[C@H]1CCCNC1,-4.7%
CCNc1ncnc2sc3c(c12)CCN(C(=O)COC)C3,-4.9%
CCCOc1ccc(CNC(=O)c2[nH]c3cc(OC)ccc3c2Sc2ccccc2)cc1,-27.2%
CN1CC2(CCN(Cc3ccc(C#N)cc3)CC2)CC(c2ccccc2)C1=O (configuration not stated),-4.8%
COc1ccc(C(=O)/C=C/c2cn(CC(O)CN3CCc4ccccc43)c3ccccc23)cc1 (configuration not stated),-3.7%
Cc1ccc(S(=O)(=O)Nc2cnccc2C(=O)Nc2nc(-c3cccc(F)c3)cs2)cc1,-4.1%
O=C(O[C@H]1CN2CCC1CC2)N1CCc2ccccc2[C@@H]1c1ccccc1,u
Cc1noc(-c2cn(C3CCN(C(=O)c4ccc(C)s4)CC3)nn2)n1,3.0%

# A portion of the library. The share of hits here may be higher or lower than overall.
